Vaccinia inh – blocks a specific stage of Vaccinia orthopoxvirus infection. Vaccinia-infected cells, mCherry/Venus stage reporter fluorescence; hits give low values; some inactives read as strong as hits. activity change (mCherry), % (test concentration not listed). 89,000 compounds, 0.01% hits. AID 1053133;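 active means mCherry past -33% and 40 or more points under the early reporter, replicates agreeing; inconclusive means past -33% without that gap or agreement; tested in A549 cells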;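 further: scaled between vehicle wells and reference inhibitor wells; 23 nL library stock went into each well; one replicate is shown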
Vaccinia inh Venus – further read-out of Vaccinia inh, marked with its call; activity change (Venus), %; measured here: Venus reporter, other viral stage;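 negative = less Venus signal; first of two replicates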
* = called active by the depositor; ? = inconclusive; · = no result given; & = joins results of further samples.

SMILES | Vaccinia inh | Vaccinia inh Venus
C[C@H](CO)N1C[C@H](C)[C@@H](CN(C)Cc2ccc(C(=O)O)cc2)Oc2ccc(NC(=O)CCC(F)(F)F)cc2CC1=O | 20 | 14
Cc1noc(C)c1NC(=O)Nc1ccc2c(c1)CC(=O)N([C@H](C)CO)C[C@@H](C)[C@@H](CN(C)Cc1ccccc1)O2 | 4 | 2
CC(C)(C)[S@](=O)N1Cc2cc(C(=O)NCc3ccncc3)nc(-c3cccc(-c4ccncc4)c3)c2[C@@H]1CCO | 5 | 5
CN(C)CC(=O)N1[C@@H]2c3ccc(-c4cccnc4)c(=O)n3C[C@H]1[C@H](CO)[C@H]2C(=O)NC1CCC1 | -7 | -1
CC(C)COC(=O)N(C)C[C@H]1OCc2cnnn2CCCC(=O)N([C@@H](C)CO)C[C@H]1C | 13 | 6
C[C@H](CO)N1C[C@H](C)[C@@H](CN(C)C(=O)CN(C)C)Oc2cc(Br)ccc2S1(=O)=O | 1 | 1
COc1ccccc1-c1cnc2c(c1)C(=O)N([C@@H](C)CO)C[C@@H](C)[C@H](CN(C)C(=O)c1ccccc1)O2 | -2 | -3
O=C(NCc1ccccc1)[C@@H]1[C@@H](CO)[C@@H]2Cn3c(cccc3=O)[C@H]1N2Cc1cccnc1 | 9 | 5
O=C(Nc1ccccc1)[C@H]1[C@H](CO)[C@H]2Cn3c(cccc3=O)[C@@H]1N2Cc1ccncc1 | 14 | 3
CC(C)NC(=O)N1[C@H](C#N)[C@@H](c2ccc(C#CC3CCCC3)cc2)[C@@H]1CO | -18 | -10
O=C(Nc1ccccc1)N[C@H]1CC[C@H](CCNC(=O)c2ccccc2F)O[C@@H]1CO | -5 | 2
COCCNC(=O)C[C@H]1C[C@@H]2c3cc(N(C)C)ccc3O[C@@H]2[C@H](CO)O1 | -5 | -1
CC=Cc1ccc2n(c1=O)C[C@@H]1[C@@H](CO)[C@H](C(=O)O)[C@H]2N1S(=O)(=O)c1ccccc1F (mixture of isomers) | 14 | 11
C[C@H]1CN([C@@H](C)CO)C(=O)c2cc(NC(=O)Nc3ccc(C(F)(F)F)cc3)ccc2O[C@@H]1CN(C)C(=O)Nc1ccccc1 | 8 | 2
CNC[C@@H]1Oc2ccc(NS(=O)(=O)c3ccc(OC)cc3)cc2CC(=O)N([C@@H](C)CO)C[C@H]1C | 9 | 2
CC(=O)N(C)C[C@H]1Oc2cc(-c3ccccc3F)ccc2S(=O)(=O)N([C@H](C)CO)C[C@@H]1C | 1 | 4
COc1ccc(NC(=O)Nc2ccc3c(c2)CC(=O)N([C@@H](C)CO)C[C@@H](C)[C@H](CN(C)Cc2ccncc2)O3)cc1 | 34 | 28
C[C@@H](NC(=O)C[C@H]1CC[C@@H](NC(=O)Nc2ccc3c(c2)OCO3)[C@@H](CO)O1)c1ccccc1 | -4 | -2
C/C=C/c1ccc2c(c1)O[C@H](CN(C)Cc1ccccc1)[C@H](C)CN([C@H](C)CO)S2(=O)=O | -30 | -15
CCCNC(=O)C[C@@H]1C[C@H]2c3cc(NC(=O)Nc4ccccc4F)ccc3O[C@H]2[C@@H](CO)O1 | 13 | 14
CN1C(=O)c2cc(NC(=O)c3ccc(F)c(F)c3)ccc2OC[C@H]2O[C@@H](CC(=O)N3CCCCC3)CC[C@@H]21 | 0 | 0
CCNC(=O)C[C@@H]1CC[C@H]2[C@@H](COc3ccc(NC(=O)NC(C)C)cc3C(=O)N2C)O1 | 0 | 4
CO[C@H](C(=O)N(C)C[C@@H]1OCc2ccccc2-c2ccccc2C(=O)N([C@H](C)CO)C[C@H]1C)c1ccccc1 | 15 | 1
C[C@@H]1CN([C@H](C)CO)C(=O)c2cc(NC(=O)NC3CCCCC3)ccc2O[C@@H](C)CCCCO[C@H]1CN(C)C(=O)Nc1ccccc1 | ? | ·
COCC(=O)N(C)C[C@@H]1Oc2cc(C#C[C@H](C)O)ccc2S(=O)(=O)N([C@H](C)CO)C[C@H]1C | 8 | 5
CCCNC(=O)Nc1ccc2c(c1)C(=O)N(C)C[C@H](OC)[C@@H](C)CN(C(=O)C1CCCCC1)[C@@H](C)CO2 | 15 | 7
COc1cccc(S(=O)(=O)N[C@H]2CC[C@H](CCN)O[C@@H]2CO)c1 | 5 | 10
C[C@H](CO)N1C[C@H](C)[C@@H](CN(C)Cc2ccc(Cl)c(Cl)c2)Oc2ccc(NC(=O)C3CC3)cc2CC1=O | ? | ·
CC(C)NC(=O)Nc1cccc2c1O[C@@H](CN(C)S(=O)(=O)c1ccc(Cl)cc1)[C@@H](C)CN([C@H](C)CO)C2=O | 2 | -4
O=C(C1CC1)N1C[C@H]2[C@@H](c3ccccc31)[C@H](CO)N2C(=O)Nc1cccc(F)c1 | -18 | 4

Given with values under each structure: ten of the compounds above
Each structure is followed by: Vaccinia inh	Vaccinia inh Venus
- CN1C(=O)c2cc(NC(=O)c3ccc(F)c(F)c3)ccc2OC[C@H]2O[C@@H](CC(=O)N3CCCCC3)CC[C@@H]21
  0	0
- CCNC(=O)C[C@@H]1CC[C@H]2[C@@H](COc3ccc(NC(=O)NC(C)C)cc3C(=O)N2C)O1
  0	4
- CO[C@H](C(=O)N(C)C[C@@H]1OCc2ccccc2-c2ccccc2C(=O)N([C@H](C)CO)C[C@H]1C)c1ccccc1
  15	1
- C[C@@H]1CN([C@H](C)CO)C(=O)c2cc(NC(=O)NC3CCCCC3)ccc2O[C@@H](C)CCCCO[C@H]1CN(C)C(=O)Nc1ccccc1
  ?	·
- COCC(=O)N(C)C[C@@H]1Oc2cc(C#C[C@H](C)O)ccc2S(=O)(=O)N([C@H](C)CO)C[C@H]1C
  8	5
- CCCNC(=O)Nc1ccc2c(c1)C(=O)N(C)C[C@H](OC)[C@@H](C)CN(C(=O)C1CCCCC1)[C@@H](C)CO2
  15	7
- COc1cccc(S(=O)(=O)N[C@H]2CC[C@H](CCN)O[C@@H]2CO)c1
  5	10
- C[C@H](CO)N1C[C@H](C)[C@@H](CN(C)Cc2ccc(Cl)c(Cl)c2)Oc2ccc(NC(=O)C3CC3)cc2CC1=O
  ?	·
- CC(C)NC(=O)Nc1cccc2c1O[C@@H](CN(C)S(=O)(=O)c1ccc(Cl)cc1)[C@@H](C)CN([C@H](C)CO)C2=O
  2	-4
- O=C(C1CC1)N1C[C@H]2[C@@H](c3ccccc31)[C@H](CO)N2C(=O)Nc1cccc(F)c1
  -18	4

More records follow.
SMILES | Vaccinia inh | Vaccinia inh Venus
Cc1ccccc1S(=O)(=O)N1CC[C@@H]2[C@H]1c1cc(-c3cccc(C#N)c3)ccc1N(C)[C@H]2CO | ? | ·
Cc1ccc(S(=O)(=O)Nc2cccc3c2O[C@@H](CN(C)C(=O)Nc2c(C)noc2C)[C@@H](C)CN([C@@H](C)CO)C3=O)cc1 | 13 | 9
CC=Cc1ccc2n(c1=O)C[C@@H]1[C@@H](CO)[C@H](C(=O)NCC)[C@H]2N1Cc1ccccc1 (mixture of isomers) | 4 | 6
CC(C)(C)[S@@](=O)N1Cc2cc(C(=O)O)nc(-c3cccc(-c4ccc(F)cc4)c3)c2[C@H]1CCO | 27 | 16
C[C@@H]1CCCCO[C@H](CN(C)Cc2ccncc2)[C@H](C)CN([C@@H](C)CO)C(=O)c2cc(N(C)C)ccc2O1 | -2 | -3
COC(=O)C[C@H]1C[C@@H]2c3cc(NC(=O)Cc4ccncc4)ccc3O[C@@H]2[C@@H](CO)O1 | 10 | 8
COc1ccc(S(=O)(=O)N(C)C[C@@H]2Oc3c(NC(=O)C4CC4)cccc3C(=O)N([C@@H](C)CO)C[C@@H]2C)cc1 | -6 | 0
O=C(C[C@H]1C[C@H]2c3cc(NC(=O)CC4CC4)ccc3O[C@H]2[C@H](CO)O1)NCc1cccc(F)c1 | -5 | -9
C[C@@H]1CN([C@H](C)CO)S(=O)(=O)c2ccc(-c3cccnc3)cc2O[C@H]1CN(C)C | -6 | -9
CCC(=O)N(C)C[C@H]1Oc2cc(C#CC3CCCCC3)ccc2S(=O)(=O)N([C@@H](C)CO)C[C@@H]1C | ? | ·
CO[C@@H]1CN(C)C(=O)c2cc(NC(=O)Nc3ccccc3F)ccc2OC[C@H](C)N(CC2CC2)C[C@H]1C | ? | ·
COc1ccc(NC(=O)N(C)C[C@H]2OCCCC[C@H](C)Oc3ccc(NS(=O)(=O)c4ccc(Cl)cc4)cc3C(=O)N([C@@H](C)CO)C[C@H]2C)cc1 | -8 | -1
C[C@H](CO)N1C[C@H](C)[C@H](CN(C)S(=O)(=O)c2ccccc2)Oc2c(NS(=O)(=O)c3cccs3)cccc2C1=O | -5 | -5
Cc1noc(C)c1NC(=O)Nc1ccc2c(c1)C(=O)N([C@H](C)CO)C[C@H](C)[C@@H](CN(C)Cc1ccc(C(F)(F)F)cc1)O2 | 2 | 1
COc1ccc2c3c(n(C)c2c1)[C@@H](CO)N(C)CC31CCN(S(=O)(=O)c2cccc(F)c2)CC1 | -12 | -3
C[C@@H]1CN([C@@H](C)CO)C(=O)c2cc(NC(=O)CCCN(C)C)ccc2O[C@@H](C)CCCCO[C@H]1CN(C)C(=O)Nc1ccc2c(c1)OCO2 | 17 | 7
O=C(Nc1ccc2c(c1)OCO2)N[C@H]1CC[C@H](CC(=O)N2CCN(c3ccccc3)CC2)O[C@H]1CO | 1 | 9
CCNC(=O)Nc1ccc2c(c1)C(=O)N(C)[C@@H]1CC[C@H](CC(=O)NC3CCCCC3)O[C@H]1CO2 | 11 | -1
COc1ccc(-c2ccc3c(c2)[C@H]2[C@H](CCN2C(=O)C2CC2)[C@H](CO)N3C)cc1 | -22 | -17
Cc1noc(C)c1NC(=O)Nc1ccc2c(c1)C(=O)N([C@@H](C)CO)C[C@@H](C)[C@H](CN(C)S(=O)(=O)c1c(C)noc1C)OCCCC[C@@H](C)O2 | 8 | 0
CCS(=O)(=O)N1CC2(C1)[C@H](c1ccccc1)[C@H](CO)N2C(=O)C1CCC1 | 15 | 10
CCS(=O)(=O)Nc1ccc2c(c1)C(=O)N(C)[C@H]1CC[C@H](CC(=O)N[C@@H]3CCN(Cc4ccccc4)C3)O[C@H]1CO2 | 9 | -5
Cn1cnc(S(=O)(=O)N2C[C@H](O)COC[C@H]3O[C@H](CC(=O)NCc4ccc(F)cc4)CC[C@@H]32)c1 | 9 | 8
C[C@H]1CN([C@@H](C)CO)S(=O)(=O)c2ccc(C#Cc3ccccc3)cc2O[C@H]1CN(C)C(=O)Cc1ccccn1 | ? | ·
C[C@@H]1CN([C@H](C)CO)C(=O)c2cc(NS(=O)(=O)c3ccc(Cl)cc3)ccc2O[C@H]1CN(C)CC1CC1 | 3 | 5
C[C@H](CO)N1C[C@H](C)[C@@H](CN(C)Cc2ccncc2)Oc2ccc(NC(=O)c3ccncc3)cc2CC1=O | 8 | 4
CCS(=O)(=O)N1Cc2cc(C(=O)N(C)C)nc(-c3cccc(-c4ccc(C#N)cc4)c3)c2[C@@H]1CCO | 25 | 21
CC(C)CC#Cc1cnc2c(c1)C(=O)N([C@@H](C)CO)C[C@@H](C)[C@@H](CN(C)C(=O)CN1CCOCC1)O2 | 14 | 4
COc1cccc(NC(=O)N2[C@@H]3CNC[C@H]2C3c2ccc(-c3cccnc3)cc2)c1 (stereo partly drawn) | -3&-15 | 5&-6
Cc1noc(C)c1S(=O)(=O)N(C)C[C@H]1Oc2ccc(NS(=O)(=O)c3cccs3)cc2C(=O)N([C@@H](C)CO)C[C@H]1C | -9 | -7
C[C@@H]1CN([C@H](C)CO)C(=O)c2cc(NC(=O)c3ccncc3)ccc2O[C@@H]1CN(C)Cc1ccc(Cl)c(Cl)c1 | -18 | -13
COc1ccc(NC(=O)Nc2ccc3c(c2)C(=O)N([C@H](C)CO)C[C@@H](C)[C@H](CN(C)Cc2ccccc2)OCCCC[C@H](C)O3)cc1 | ? | ·
COc1ccc(S(=O)(=O)Nc2ccc3c(c2)C(=O)N([C@@H](C)CO)C[C@H](C)[C@H](CN(C)S(=O)(=O)c2ccc(F)cc2)OCCCC[C@H](C)O3)cc1 | -27 | -21
CC(=O)N(CC1CCC1)C[C@@H]1N[C@@H](CO)[C@H]1c1ccc(C2=CCCC2)cc1 | -35 | -19
C[C@H]1CN([C@@H](C)CO)C(=O)c2cc(NS(=O)(=O)c3ccc(Cl)cc3)ccc2O[C@H]1CN(C)S(=O)(=O)c1cn(C)cn1 | 5 | -2
C[C@@H]1CN([C@H](C)CO)C(=O)c2cc(-c3cncnc3)cnc2O[C@H]1CN(C)Cc1ccncc1 | 10 | -1
CC(C)NC(=O)N(C)C[C@@H]1Oc2ccc(NC(=O)Nc3ccc(F)cc3)cc2CC(=O)N([C@H](C)CO)C[C@H]1C | 8 | 1
COCC(=O)N1CC[C@@H]2[C@H](CO)Nc3ccc(C#Cc4ccccc4)cc3[C@@H]21 | 9 | 13
CO[C@@H]1CN(C)C(=O)c2cc(NC(=O)CC(F)(F)F)ccc2OC[C@H](C)N(C(C)=O)C[C@@H]1C | 6 | 17
C[C@@H]1CN([C@H](C)CO)C(=O)c2cccc(NS(=O)(=O)c3ccc(F)cc3)c2O[C@H]1CN(C)C(=O)Nc1ccccc1 | 0 | -1
CC(C)NC(=O)N(C)C[C@@H]1Oc2ccc(NC(=O)c3ccncc3)cc2C(=O)N([C@H](C)CO)C[C@H]1C | 2 | 1
O=C(C[C@@H]1CC[C@H]2[C@@H](COC[C@@H](O)CN2C(=O)c2ccc(F)cc2)O1)NC1Cc2ccccc2C1 | 18 | 14
CC(C)NC(=O)N(C)C[C@@H]1Oc2ccc(NC(=O)C3CCCCC3)cc2C(=O)N([C@H](C)CO)C[C@H]1C | 11 | 13

A portion of the library; rates above refer to the full screens.
